High-throughput results (PubChem)
Ecoli rRNA inh: inhibits bacterial ribosomal RNA function over humanized ribosomes. E. coli WT GFP vs humanized-ribosome RFP mutants, fluorescence, 24 h; hits give low values; DMSO median 0, no signal -100. actives 1.6% (n = 350,000). GFP signal change (wild-type ribosome), % (test concentration not listed);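 active = significant combined selectivity score with lowered wild-type GFP, culture density cut under 30%, mutant RFP and density less affected; inactive = any of these conditions unmet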; note: one replicate is shown; some compounds called inactive have numbers as strong as hits
Ecoli rRNA inh OD600: second read-out of Ecoli rRNA inh, no call of its own (marks repeat the call); OD600 change, %; measured here: OD600 growth;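 optical density of the mix in the first replicate; 0 = DMSO median and -100 = no signal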
Ecoli rRNA inh RFP: further read-out of Ecoli rRNA inh, marked with its call; RFP signal change, %; measured here: RFP humanized mutant strains;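 first replicate; 0 = DMSO median and -100 = no signal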
Numbers without * were called inactive; & = joins results of further samples.

SMILES	Ecoli rRNA inh	Ecoli rRNA inh OD600	Ecoli rRNA inh RFP
C[C@H](CO)N1C[C@H](C)[C@@H](CN(C)S(=O)(=O)c2ccc(C(F)(F)F)cc2)OCc2ccccc2-c2c(n(C)c3ccccc23)C1=O	5	13	1.9
COc1ccc(NC(=O)CCn2c(=S)[nH]c3ccccc3c2=O)cc1Cl	5	5	-2.2
Cc1ccc(Cl)cc1N1C(=O)CC(Sc2ccccc2N)C1=O (stereo unspecified)	1	8	-1.7
CN1[C@@H]2Cn3c(ccc(-c4ccc(F)cc4)c3=O)[C@H]1[C@@H](C(=O)N1CCCCC1)[C@@H]2CO	3	5	-2.7
C[C@@H]1CN([C@@H](C)CO)S(=O)(=O)c2ccc(C#CC3CC3)cc2O[C@@H]1CN(C)S(C)(=O)=O	-2	7	-0.7
COc1cccc(C#Cc2ccc([C@@H]3[C@@H](C#N)N(C(=O)c4ccccn4)[C@H]3CO)cc2)c1	-1	-2	5.0
O=C(NCC[C@H]1CC[C@@H](NS(=O)(=O)c2cccc(F)c2)[C@@H](CO)O1)C1CCCCC1	-2	-1	0.6
CC=Cc1ccc2n(c1=O)C[C@@H]1[C@@H](CO)[C@H](C(=O)NCc3ccc(F)cc3)N(Cc3cncnc3)[C@H]21 (mixture of isomers)	4	4	1.7
CC(C)NC(=O)N(C)C[C@@H]1Oc2ccc(NC(=O)Nc3ccccc3)cc2CC(=O)N([C@H](C)CO)C[C@@H]1C	4	12	-1.7
CCCCNC(=O)C1(C)CCCCN1C(=O)c1ccc2ccccc2n1 (stereo unspecified)	3	5	-0.1
C[C@@H]1CCCCO[C@@H](CN(C)C)[C@H](C)CN([C@H](C)CO)C(=O)c2cc(NC(=O)CCCCCC(=O)Nc3ccccc3N)ccc2O1	5	17	-2.1
O=C(CC1CC1)N1CC(=O)N2[C@H](C1)[C@H](c1ccc(-c3ccccc3)cc1)[C@@H]2CO	-2	1	5.3
C[C@@H]1CN([C@H](C)CO)C(=O)Cc2cc(NC(=O)Nc3ccc(C(F)(F)F)cc3)ccc2O[C@@H]1CN(C)C(=O)Nc1cccc2ccccc12	-1	1	-0.8
COc1ccc(NC(=O)Nc2ccc3c(c2)C(=O)N([C@H](C)CO)C[C@H](C)[C@@H](CN(C)Cc2ccccc2)OCCCC[C@H](C)O3)cc1	2	-11	1.1
COc1ccc(S(=O)(=O)N(C)C[C@@H]2OCCCC[C@H](C)Oc3ccc(NC(=O)CCCN(C)C)cc3C(=O)N([C@H](C)CO)C[C@H]2C)cc1	3	9	-1.9
COCC(=O)Nc1ccc2c(c1)C(=O)N(C)C[C@@H](OC)[C@H](C)CN(CCC(F)(F)F)[C@@H](C)CO2	0	-1	1.1
CCCNC(=O)N(C)C[C@@H]1Oc2cc(Br)ccc2S(=O)(=O)N([C@@H](C)CO)C[C@@H]1C	-5	5	0.2
CO[C@@H]1CN(C)C(=O)c2cc(NC(C)=O)ccc2OC[C@@H](C)N(Cc2ccc(-c3ccccn3)cc2)C[C@H]1C	-4	-3	0.9
CC(C)NC(=O)N(C)C[C@H]1Oc2ccc(NC(=O)Nc3cccc4ccccc34)cc2C(=O)N([C@@H](C)CO)C[C@@H]1C	2	0	-1.5
COc1ccc(-c2c(C#N)cnc(C)c2C)c(O)c1OC	4	6	-1.1
CC(=O)N(C)C[C@H]1Oc2cc(C#CC(C)(C)O)ccc2S(=O)(=O)N([C@H](C)CO)C[C@H]1C	0	-2	0.2
CS(=O)(=O)N1[C@H](CO)[C@@H](c2ccc(-c3ccccc3F)cc2)[C@@H]1C#N	-5	-9	2.2
COCCNC(=O)C1Cc2c(-c3ccc(NC(C)=O)cc3)ccnc2O1 (stereo unspecified)	-1	4	0.6
CCCNC(=O)N1CC2(C1)CN(C(=O)CC1CC1)[C@@H](CO)c1c2c2ccc(OC)cc2n1C	-1	-3	-0.8
O=C(Nc1ccccc1F)N1CC(=O)N2[C@H](C1)[C@@H](c1ccc(-c3cccnc3)cc1)[C@@H]2CO	6	4	1.7
C[C@@H]1CCCCO[C@@H](CN(C)C(=O)c2ccccc2)[C@H](C)CN([C@@H](C)CO)C(=O)c2cc(NC(=O)Nc3ccc(C(F)(F)F)cc3)ccc2O1	-1	4	2.2
O=C(NC[C@H]1[C@@H](c2ccccc2)[C@H](CO)N1CC1CC1)c1cccnc1	-1	6	-2.8
O=C(C[C@@H]1C[C@@H]2c3cc(NC(=O)C4CCOCC4)ccc3O[C@@H]2[C@H](CO)O1)NCc1ccc2c(c1)OCO2	-6	-11	-3.4
COc1ccc2c3c([nH]c2c1)[C@H](CO)N(C)CC31CCN(C(=O)NC(C)C)CC1	1	-2	-0.2
O=C(CN1CCOCC1)N[C@H]1CC[C@@H](CCn2cc(C3CC3)nn2)O[C@H]1CO	1	1	-1.8
C[C@H](CO)N1C[C@H](C)[C@@H](CN(C)Cc2ccc(Cl)c(Cl)c2)Oc2c(NS(C)(=O)=O)cccc2C1=O	-2	-11	-0.6
Cc1noc(C)c1NC(=O)N(C)C[C@H]1Oc2ccc(NC(=O)Cn3cnnn3)cc2C(=O)N([C@@H](C)CO)C[C@H]1C	1	-3	-0.6
O=C(C[C@H]1CC[C@@H]2[C@H](COC[C@@H](O)CN2C(=O)Nc2cccc(F)c2)O1)NCc1ccccc1Cl	-10	-17	11
C[C@H](CO)N1C[C@H](C)[C@@H](CN(C)Cc2ccc(Cl)c(Cl)c2)Oc2ccc(NS(=O)(=O)c3cccs3)cc2CC1=O	-4	-8	6.9
C[C@@H]1CN([C@@H](C)CO)C(=O)Cc2cc(NC(=O)Nc3ccc(F)cc3)ccc2O[C@H]1CN(C)S(=O)(=O)c1cccs1	-4	-8	3.1
CN(C)CC(=O)N[C@@H]1C=C[C@H](CC(=O)NCc2ccccc2F)O[C@H]1CO	3	2	-3.1
COc1ccc(CN2C(=O)CCC2(C)c2nnnn2C2CCCCC2)cc1 (stereo unspecified)	8	8	1.8
COc1ccc2c3c(n(C)c2c1)[C@@H](CO)NCC31CN(Cc2ccc(-c3ccccn3)cc2)C1	2	11	0.5
O=C(Nc1ccccc1)N[C@@H]1CC[C@H](CCNC(=O)c2ccccc2F)O[C@H]1CO	3	4	-3.3
Cc1cccnc1C(NC(=O)C1CCN(Cc2cn(C)c3ccccc23)CC1)c1ccc(Cl)cc1 (stereo unspecified)	-49	-80	-19
C[C@H]1CN([C@@H](C)CO)C(=O)c2cc(-c3ccc(F)cc3)cnc2O[C@H]1CN(C)C(=O)c1ccccn1	5	2	-2.0
C[C@@H]1CN([C@@H](C)CO)C(=O)c2cccc(NC(=O)c3ccc(-c4nccs4)cc3)c2O[C@H]1CN(C)C(=O)Nc1ccc(C(F)(F)F)cc1	-5	-6	0.6
COCC(=O)N1[C@H](CO)[C@H](c2ccc(-c3cccc(F)c3)cc2)C12CN(C(=O)C1CC1)C2	-1	1	2.2
COc1cc(Cl)ccc1OC1(C)CCN(Cc2ccc(SC)cc2)C1 (stereo unspecified)	-60	-78	-18
C[C@H]1CN([C@@H](C)CO)C(=O)c2cc(C#Cc3ccncc3)cnc2O[C@H]1CN(C)C(=O)CN(C)C	7	12	1.6
COC(=O)[C@]12CCCCC=C1N(CCC1=CCCCC1)C(=O)[C@H](CC(=O)NCCCN1CCCC1=O)C2	-15	-12	0.9
C/C=C/c1ccc2c(c1)O[C@@H](CN(C)CC1CCCC1)[C@H](C)CN([C@H](C)CO)S2(=O)=O	-1	4	-1.3
C[C@H](CO)N1C[C@H](C)[C@@H](CN(C)Cc2ccc(C(F)(F)F)cc2)OCc2ccccc2-c2c(n(C)c3ccccc23)C1=O	2	14	-3.8
COc1ccccc1-c1cn(CC[C@@H]2CC[C@@H](NC(=O)Cc3ccccn3)[C@@H](CO)O2)nn1	0	-5	2.2
C[C@H](CO)N1C[C@H](C)[C@H](CN(C)S(=O)(=O)c2ccc(Cl)cc2)OCCCC[C@H](C)Oc2ccc(NC(=O)Nc3ccc(F)cc3)cc2C1=O	2	11	-2.5

(list continues)
SMILES	Ecoli rRNA inh	Ecoli rRNA inh OD600	Ecoli rRNA inh RFP
C[C@H](CO)N1C[C@H](C)[C@@H](CN(C)Cc2ccc(C(=O)Nc3ccccc3N)cc2)Oc2ccc(NC(=O)Cn3cnnn3)cc2C1=O	0	-1	-3.0
C[C@@H]1CN([C@H](C)CO)C(=O)c2c(c3ccccc3n2C)-c2ccccc2CO[C@H]1CN(C)S(=O)(=O)c1ccccc1	2	0	-2.2
C[C@H](CO)N1C[C@H](C)[C@H](CN(C)C(=O)Nc2ccc3c(c2)OCO3)Oc2ccc(NC(=O)Cc3ccccc3)cc2CC1=O	0	-2	-2.6
CN1C(=O)c2cc(NC(=O)C3CCCCC3)ccc2OC[C@H]2O[C@H](CC(=O)NCc3ccccc3F)CC[C@H]21	-5	-17	0.3
C[C@@H]1CN([C@@H](C)CO)C(=O)CCCn2nncc2CO[C@H]1CN(C)C(=O)c1ccncc1	0&3	14&2	-3.5&-0.6
CN1C(=O)c2cc(NC(=O)c3cscn3)ccc2OC[C@H]2O[C@H](CC(=O)NCc3ccc(Cl)c(Cl)c3)CC[C@@H]21	-6	-11	-1.8
CCCCNC(=O)C1(C)CCCCN1C(=O)c1c(C)noc1C (stereo unspecified)	3	0	-0.6
COC(=O)c1ccc2c(=O)n(CCN3CCOCC3)c(SCC(=O)Nc3ccccc3OC)nc2c1	0	4	-1.5
Cc1ccc(S(=O)(=O)N2CC[C@H]3[C@H](CO)Nc4ccc(-c5ccc(C#N)cc5)cc4[C@H]32)cc1	-10	2	3.9
C[C@H]1CN([C@@H](C)CO)C(=O)c2cc(NS(=O)(=O)c3ccc(F)cc3)ccc2O[C@@H]1CN(C)C	-6	2	-2.0
CCNC(=O)C[C@H]1CC[C@@H]2[C@@H](COc3ccc(NC(=O)c4ccc(C(F)(F)F)cc4)cc3C(=O)N2C)O1	-5	0	0.4
CCc1nc2c(OCc3cccc(OC)c3)cccn2c1N(C)C(=O)c1ccccc1F	6	-4	1.0
COc1cc(CN2CC3(CCN(C(=O)CN4CCOCC4)CC3)c3c(n(C)c4cc(OC)ccc34)[C@@H]2CO)cc(OC)c1	3	6	3.7
CC(C)C#Cc1ccc2c(c1)O[C@H](CN(C)C(=O)C1CC1)[C@@H](C)CN([C@@H](C)CO)S2(=O)=O	-4	-1	-0.3
C[C@H]1CN([C@@H](C)CO)S(=O)(=O)c2ccc(Br)cc2O[C@@H]1CN(C)C(=O)Cc1cccnc1	4&1	10&-4	-1.3&-3.7
CCCNC(=O)Nc1ccc2c(c1)C(=O)N(C)C[C@H](OC)[C@@H](C)CN[C@@H](C)CO2	4	1	0.8
CS(=O)(=O)Nc1ccc2c(c1)[C@H]1C[C@H](CC(=O)NCc3ccc(Cl)cc3)O[C@@H](CO)[C@H]1O2	6	20	-1.6
C[C@H]1CN([C@@H](C)CO)C(=O)c2c(c3ccccc3n2C)-c2ccccc2CO[C@H]1CN(C)S(=O)(=O)c1ccc(C#N)cc1	-2	1	1.3
COc1ccc2c3c(n(C)c2c1)[C@H](CO)N(C)CC31CN(C(=O)Nc2c(C)noc2C)C1	6	19	-0.7
CC(C)C#Cc1cnc2c(c1)C(=O)N([C@@H](C)CO)C[C@@H](C)[C@@H](CN(C)Cc1cncnc1)O2	9	6	-0.2
O=C(Cc1ccccn1)N[C@@H]1CC[C@H](CC(=O)N2CCCCC2)O[C@H]1CO	3	9	1.1
C[C@@H]1CCCCO[C@H](CN(C)S(=O)(=O)c2ccc(Cl)cc2)[C@@H](C)CN([C@H](C)CO)C(=O)c2cc(NC(=O)CCCN(C)C)ccc2O1	2	4	0.2
CN1C(=O)c2cc(NS(=O)(=O)c3ccccc3F)ccc2OC[C@H]2O[C@@H](CC(=O)NC3Cc4ccccc4C3)CC[C@@H]21	-11	-29	-0.3
Cc1cc(=O)n2c(nc3ccccc32)s1	-8	-6	-0.8
COc1ccc(N2CCN(C(c3ccccc3)c3nnnn3C(C)(C)C)CC2)cc1 (stereo unspecified)	-4	-10	0.3
CO[C@@H]1CN(C)C(=O)c2ccc(NC(C)=O)cc2OC[C@@H](C)N(Cc2ccccn2)C[C@H]1C	0	3	-3.8
Cc1ccc(C(=O)Nc2ccccc2C(=O)N2CC(C)OC(C)C2)cc1 (stereo unspecified)	11	24	6.1

These rows are one share of the data, so the mix of outcomes need not match the whole.
